Screening results as filed in PubChem.
Vif TR-FRET: inhibitors of Vif binding to APOBEC3G peptide, primary screen, biochemical, TR-FRET, GST-Vif 1-94, biotin-A3G peptide, dose response retest (AID 1117319); Virion infectivity factor (Human immunodeficiency virus type 1 group M subtype B (isolate …; TR-FRET GST-Vif / biotin-A3G peptide binding; higher % means a stronger effect; test concentration not given here; strong numbers were not always called active; inhibition, %, or IC50 in µM where a hit was titrated; actives 0.57% (n = 260,000);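 active means above the screen mean plus three standard deviations and confirmed in dose response; inconclusive means results disagree or hit not tested in dose response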;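 further: Vif residues 1-94 fused to GST binding biotinylated APOBEC3G peptide 110-148; 0% = full assay without inhibitor and 100% = GST in place of GST-Vif; retest series ran down from 100 µM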
A1 inh: caspase 3/7 activation in MEF A1-2A-BIM cells, primary screen, A1 inhibitor project, cell-based, luminescence, HTS | Caspase-Glo 3/7 luminescence, 3 h; percent of clofoctol response, vehicle zero | caspase activation, % (concentration not given with the values) | actives 0.066% (n = 330,000);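 active means over half of replicate activation scores above 10%, or exactly half above 10 with the replicate mean above 10; inconclusive means replicate mean below 10 yet half the replicates above 10; inactive means over half of replicates below 10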;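 further: wells of about 30 µL received 50 nL stock; many hits fall short of the cut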
LANA-H2B inh: blockers of LANA interaction with H2A/H2B – biochemical, FP readout, HTS, primary screen; Protein LANA1 (Human herpesvirus 8 type P (isolate GK18)), Q9QR71; cell-free LANA-H2A/H2B peptide, fluorescence polarization; inhibition, % (test concentration not listed); actives 0.6% (n = 320,000); AID 2629, 2010; in the data active means inhibition mostly above about 10%, no sharp cut-off; inactive means mostly below about 6.7%;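 further: stock transfer was 7.5 nL into about 10 µL; 0% = median of vehicle wells and 100% = median of positive control wells; one replicate is shown; the record names a cut of 25% in any replicate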
RanGTP-Impb inh: inhibitors of RanGTP-importin-beta interaction, primary screen, biochemical, FRET, CFP-Ran, YFP-importin-beta, homogeneous; cell-free CFP-Ran/YFP-importin-beta FRET ratio; actives 1.1% (n = 300,000); AID 2216, 2009; inhibition, % (no concentration beside the values); Ran GTPase (GTP-bound) - importin-beta complex;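 active means most replicates above 15%; inconclusive means exactly half above 15%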;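 further: 0% = DMSO wells and 100% = Ran loaded with GDP instead of GTP; wells of about 40 µL received 100 nL stock; the first replicate is given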
AF4-AF9 inh: inhibitors of AF4 peptide binding to AF9, primary screen, biochemical, AlphaScreen, biotin-AF4 peptide, FLAG-AF9, single point; Protein AF-9 (Homo sapiens), P42568; inhibition, % at 10 µM; actives 0.47% (n = 350,000);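 active means every replicate reaching a set inhibition limit, whatever the replicate mean, cut at about 25% in these data; inconclusive means mean inhibition reaches that limit but some replicates miss it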;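 further: 0% = plate neutral control median and 100% = total signal loss; the record names both 10 and 1 µM as test concentration; the first replicate is given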
Target sequence (P42568 whole entry, looked up): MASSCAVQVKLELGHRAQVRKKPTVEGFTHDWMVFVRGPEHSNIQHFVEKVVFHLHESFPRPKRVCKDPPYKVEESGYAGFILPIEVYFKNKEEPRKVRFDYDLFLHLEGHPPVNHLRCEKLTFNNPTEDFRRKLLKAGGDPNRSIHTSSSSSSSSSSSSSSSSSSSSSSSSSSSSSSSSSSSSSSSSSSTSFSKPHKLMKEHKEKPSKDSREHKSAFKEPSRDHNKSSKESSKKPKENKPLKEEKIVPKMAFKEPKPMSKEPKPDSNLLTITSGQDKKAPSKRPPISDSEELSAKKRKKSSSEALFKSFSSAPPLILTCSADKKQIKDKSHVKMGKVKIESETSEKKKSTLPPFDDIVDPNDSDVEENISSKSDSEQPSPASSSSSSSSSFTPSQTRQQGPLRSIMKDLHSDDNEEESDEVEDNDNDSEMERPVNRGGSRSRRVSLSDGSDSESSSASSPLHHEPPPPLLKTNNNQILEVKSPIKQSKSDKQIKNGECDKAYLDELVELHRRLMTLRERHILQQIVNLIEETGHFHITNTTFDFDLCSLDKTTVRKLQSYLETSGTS
Calb FLC: C. albicans growth inhibition with fluconazole, primary screen, CaCi-2 strain, Alamar Blue fluorescence | AID 1979, 2009 | C. albicans CaCi-2 (fluconazole-resistant clinical isolate) + fluconazole, 48 h | growth inhibition, % (concentration not given with the values) | actives 0.57% (n = 300,000);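 active means most replicates above 75%; inconclusive means exactly half above 75%; inactive means most below 75%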;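 further: all wells also contain fluconazole at 8 µg/ml as a sub-toxic cotreatment; 0% = median of DMSO wells and 100% = median of geldanamycin control wells; wells of about 8 µL received 7.5 nL stock; the first replicate is given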
Beta apoptosis: inhibitors of cytokine-induced beta cell apoptosis, primary screen, luminescence. INS-1E cytokine-induced death, ATP luminescence, 48 h; percent of positive-control rescue, neutral wells zero. protection from apoptosis, % (concentration not given with the values). actives 0.8% (n = 300,000). AID 435005, 2010;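 active means all replicates at 75% or more, or half of them and the mean; inconclusive means half reach 75% but not the mean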;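 further: 0% = cytokine-treated negative control wells and 100% = positive control rescue; higher means more ATP so stronger rescue from cytokine killing; wells of about 40 µL received 100 nL stock; the first replicate is given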
T cruzi inh: inhibitors of intracellular T. cruzi growth, primary screen, luminescence, NIH3T3 host cells. AID 1885, 2009. actives 1.4% (n = 300,000). inhibition, % (test concentration not listed). T. cruzi beta-gal in NIH3T3, 90 h;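 active means mean inhibition across valid replicates above about 55%, limit read from the data; inconclusive means mean below that limit but half or more replicates reach it; inactive means mean below it, under half of replicates reach it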;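 further: signal also drops with host cell toxicity which is not excluded here; 0% = plate median of DMSO wells and 100% = zero luminescence signal; higher percent means less beta-gal luminescence so fewer parasites; stock transfer was 50 nL into about 50 µL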
Numbers without * were called inactive; ? = inconclusive; . = not tested or not shown.

SMILES	Vif TR-FRET	A1 inh	LANA-H2B inh	RanGTP-Impb inh	AF4-AF9 inh	Calb FLC	Beta apoptosis	T cruzi inh
CCOC(=O)CCSc1nc(C)c2cc(OC)ccc2n1	-10%	-0.7	-9.3	3.8	.	-8	-8	10
Cn1c(=O)[nH]c(=O)c2c1nc(N/N=C/c1ccncc1)n2Cc1ccc(F)cc1	4%	-0.1	2.5	-4.6	-2.4	-2	3	-28
O=C(NC(=O)c1cc([N+](=O)[O-])ccc1Cl)C1=C(N2CCCC2)COC1=O	.	-1.1	0.8	.	4.0	.	5	.
CCOc1cc(CNCCSc2nnnn2C)cc(Br)c1OCc1ccc(F)cc1	1%	0.6	-0.6	-3.6	8.1	-2	6	14
Cc1cccc(N2CCN(C(=O)CCS(=O)(=O)c3ccc4c(c3)NC(=O)CO4)CC2)c1C	1%	0.2	0.3	2.6	1.1	3	3	6
O=C(CN1CCN(c2ccc(F)cc2)CC1)Nc1cccc(C(F)(F)F)c1	13%	1.0	6.5	3.1	.	-1	-8	12
CCN1CCc2c(C#N)c(NCc3ccccc3)nc(NCCO)c2C1	-2%	1.4	1.4	-3.6	.	-1	-6	10
Cc1cccn2c(=O)c(C=NCc3ccco3)c(Nc3ccc(SC(F)F)cc3)nc12	-7%	-0.5	7.3	2.4	.	0	25	9
COC(=O)N1CC(c2ccccc2)CC1=O (stereo not given)	-2%	0.6	4.9	-1.2	.	-8	2	1
O=C(CSC1=NCCN1)Nc1cccc([N+](=O)[O-])c1	0%	1.0	2.3	-1.9	-3.1	-26	.	-20
CCSc1nnc(NC(=O)C2CCN(C(=O)c3ccc(F)cc3)CC2)s1	.	0.0	2.9	.	-1.7	.	3	.
O=S(=O)(c1ccc(Cl)cc1)N1CCN=C1SCc1cccnc1	0%	1.8	-5.4	-0.6	-0.6	34	-3	5
Nc1nc(SCC(=O)c2ccc(Oc3ccccc3)cc2)n[nH]1	4%	0.3	7.9	-4.8	.	18	-5	-14
COc1ccc(OCC(=O)NNC(=O)C(=O)Nc2ccccc2)cc1	.	0.2	-2.9	.	-1.1	.	-7	.
CN(C)c1cccc(C(=O)NCC(c2ccco2)N(C)C)c1 (stereo not given)	.	-0.3	0.2	2.1	1.5	0	-5	10
COc1cc(NC(=O)c2cccs2)c(OC)cc1NC(=O)Nc1ccc(F)cc1	-1%	1.2	-0.1	-3.4	3.2	21	-3	10
Cc1ccc(C2=CC(c3ccc(N(C)C)cc3)n3nnnc3N2)cc1 (stereo not given)	5%	-0.5	4.0	-4.9	2.4	15	108*	8
Cc1cccc(-n2[nH]c3c4c(ccc3c2=O)C(=O)c2ccccc2C4=O)c1	29%	1.1	-4.8	-0.1	.	-2	22	12
COc1ccc2oc3cc(C)[n+]([O-])c(-c4ccc(Cl)cc4)c3c2c1	.	0.7	-2.6	2.4	.	24	-7	30
Cc1nn(C)c(C)c1S(=O)(=O)N(CC(=O)Nc1nccs1)c1ccc(C(C)C)cc1	-1%	.	.	1.6	0.5	-2	.	-1
CC1CC(C)CN(S(=O)(=O)c2ccc(NC(=O)c3ccc(=O)[nH]c3)cc2)C1 (stereo not given)	74%	0.1	-2.9	.	-6.4	.	19	.
CCOc1cc2[nH]c(=O)n(CC3CCC(C(=O)NCCCOC)CC3)c(=O)c2cc1OCC (stereo not given)	2%	-0.2	-0.7	-0.8	.	4	-1	0
O=C(c1cnccn1)N(c1ccccc1)C1(C(=O)NC2CCCC2)CCCCC1	-5%	1.3	-2.9	-1.1	.	-3	-6	-2
COc1cccc(CNC(=O)Cc2ccc(Br)cc2)c1	.	-0.2	5.5	-2.3	0.0	?	0	-2
COCCNC(=O)c1cccc(OC2CCN(Cc3ccccc3C)CC2)c1	.	1.9	-4.8	5.2	1.9	5	.	5
Cc1cccc(Cn2c(=O)c3c(nc4n3CCN4Cc3ccco3)n(C)c2=O)c1	19%	1.1	0.5	6.0	.	-3	9	-8
CCN(CC(=O)Nc1ccc2c(c1)OCCO2)C(=O)/C=C/c1ccc(F)cc1	.	0.2	-3.1	-2.3	-2.1	15	-1	3
COCCNC(=O)c1ccc(N2CCC3(CC2)OCCO3)c([N+](=O)[O-])c1	.	-0.8	1.8	3.1	.	-1	-2	1
Cc1cc(S(=O)(=O)N2CCCCC2)c(C)s1	.	-0.2	-3.8	-1.6	-1.2	-6	-6	0
CCc1nc(SCCO)c2oc3ccccc3c2n1	9%	-0.5	-1.7	-1.7	.	-4	3	1
Cc1c(C(=O)N2CCc3ccccc32)cnn1C	6%	1.0	3.3	2.7	.	43	-5	-19
CC(C)=NNC(=O)c1c(O)c2ccccc2[nH]c1=O	13%	0.2	4.5	-1.3	.	0	-4	-6
CCNC(=O)CCSc1nnc(-c2ccco2)o1	.	-0.2	1.2	-0.8	-32	-2	-3	-20
CCn1cc([N+](=O)[O-])c(C(=O)Nc2nc(-c3ccc(C)cc3)c(C)s2)n1	9%	3.2	-1.7	3.5	-2.1	?	-19	4
O=C(NNS(=O)(=O)c1ccccc1Cl)c1nn(-c2ccc(F)cc2)ccc1=O	6%	-0.6	25	-1.3	-0.3	5	-7	-5
Cc1ccc(N(C(C)C(=O)N2CCC(C)CC2)S(C)(=O)=O)cc1C (stereo not given)	-1%	0.2	-6.1	2.3	0.8	0	0	-23
CC1(C)NC(=O)N(CC(=O)N2CCCC(C(F)(F)F)C2)C1=O (stereo not given)	-7%	0.4	2.6	1.5	-9.2	13	.	-6
O=[N+]([O-])c1cccc(-c2nnc3ccc4ccccc4n23)c1	-3%	1.0	-8.2	4.1	.	-7	-2	-17
CC[C@@]1(O)C(=O)OCc2c1cc1n(c2=O)Cc2cc3c(N)cccc3nc2-1	.	0.6	-1.3	?	-1.8	14	98*	45
CN(c1ccc(C(=O)Nc2ccc3c(c2)OCCO3)cc1)S(C)(=O)=O	0%	-6.3	1.4	8.1	.	-6	3	19
Nc1nc(Cl)nc2ncn(Cc3ccccc3)c12	.	-0.4	-2.3	-0.3	1.5	3	.	3
O=C(CCNS(=O)(=O)c1ccc2c(c1)CCC(=O)N2)NCc1ccc2c(c1)OCO2	-5%	-0.3	1.8	-2.6	.	-13	5	-4
O=C(C1CCN(S(=O)(=O)c2cccc3cccnc23)CC1)N1CCc2ccccc21	6%	0.0	17	?	.	6	2	10
CSc1ccccc1OCc1cc(C(=O)N(C)Cc2ccc(C)o2)no1	16%	-1.5	-1.7	0.0	-0.5	12	-5	-1
Cc1csc(NC(=O)c2cccc(C)c2C)n1	-1%	-0.3	0.0	2.1	.	-4	2	5
C#CCOCCOCCOCCNc1nc(N2CCN(C(=O)CCCCCCCCCCNC(=O)[C@@H](CCSC)n3cc(CCO)nn3)CC2)nc(N2CCN(C(=O)CCCCCCCCCCNC(=O)[C@H](CCSC)n3cc(CCO)nn3)CC2)n1	.	-0.1	4.1	.	-0.8	.	15	.
CCN1C(=O)c2ccccc2S(=O)(=O)c2ccc(C(=O)NC(C)C)cc21	-1%	0.2	4.5	4.0	-0.4	-5	-4	-7
Cc1cc(N2C(=O)C(O)=C(C(=O)c3cc4ccccc4o3)C2c2ccc(OC(C)C)cc2)no1 (stereo not given)	.	-1.4	0.7	-3.0	4.9	-7	-5	-9
CC(C)[C@H](NS(=O)(=O)c1ccccc1F)C(=O)OCC(=O)Nc1cccc(S(N)(=O)=O)c1	-3%	3.7	-0.6	.	-0.3	.	-9	.
O=C(O)C1CCCCC1C(=O)NCCCc1ccccc1 (stereo not given)	-1%	1.2	3.4	1.2	.	4	-6	-17
(further entries)
SMILES	Vif TR-FRET	A1 inh	LANA-H2B inh	RanGTP-Impb inh	AF4-AF9 inh	Calb FLC	Beta apoptosis	T cruzi inh
COCCn1c(SCC(=O)NC2CCCC2)nc2cccnc21	.	-0.7	8.7	-0.6	0.0	1	-5	11
NC(=O)CCn1ccc2ccccc21	?	0.5	4.8	5.8	-0.8	-30	.	-29
Cc1cc(C)c(NC(=O)COC(=O)CSc2ccc(Br)cc2C)c(C)c1	-10%	-0.3	-1.6	4.3	.	16	-2	-11
CCN(C(=O)CSc1cc(C)c2ccccc2n1)C1CCS(=O)(=O)C1 (stereo not given)	.	0.5	8.9	?	-0.5	-1	6	0
Cc1cc(SCC(=O)c2ccc(O)c(O)c2)nc2ccccc12	30%	0.3	-0.9	3.5	0.7	-3	-4	-7
CC(C)(C)C(=O)NC(=S)Nc1ccc(F)cc1	-6%	0.2	2.1	4.4	-5.5	-6	-4	11
CCCc1ccc(-c2cc(C(=O)NC3=NCCS3)c3ccccc3n2)cc1	-6%	-1.6	2.5	-5.0	-5.7	-4	39	17
COc1cccc(NC(=O)COC(=O)c2c3c(nc4ccccc24)CCC(C)C3)c1 (stereo not given)	4%	1.5	0.5	4.0	.	4	1	73*
CCn1c(SCC(=O)NC2(C#N)CCCCC2)nc2ccccc2c1=O	-3%	0.8	2.9	-4.1	3.2	0	-8	11
Cc1cc2c(cc1S(=O)(=O)CCC(=O)NC1CCCCC1C)OCC(=O)N2 (stereo not given)	.	-0.5	3.0	1.1	2.5	-3	4	2
N#CC1(NC(=O)COC(=O)c2ccccc2SCC(=O)N2CCCC2)CCCCC1	.	0.2	3.5	2.6	0.7	-10	-11	7
Cc1cccc(N(Cc2ccccc2)C(=O)Cc2ccc(S(=O)(=O)N3CCOCC3)s2)c1	1%	-0.5	-7.1	-1.5	12	0	9	28
Cc1nc(Nc2ccc(Cl)c(Cl)c2)sc1C(=O)Nc1ccccc1	-1%	2.2	4.0	-2.4	0.5	9	86*	50
COc1cc2c(cc1NC(=O)c1cccc([N+](=O)[O-])c1C)oc1ccccc12	-7%	0.3	7.8	-1.8	-4.6	-5	13	37
O=c1[nH]c(CSc2nnnn2-c2ccc(Cl)cc2)nc2ccccc12	-10%	-0.3	-5.0	6.4	-3.5	?	-1	-10
COc1ccc(-n2nnc3c(=O)n(CC(=O)N4CCCc5ccccc54)cnc32)cc1	.	0.6	0.1	-1.7	1.7	-3	-11	-7
CCCN1Cc2cccc(C(=O)N3CCN(c4ccccc4)CC3)c2C1=O	2%	1.3	0.4	0.1	.	-18	-3	5
Cc1cccc(Nc2ncnc3nc[nH]c23)c1	7%	-4.7	5.8	?	0.4	-1	0	-6
CCC(=O)Nc1ccc(C(=O)NNC(=O)c2cc([N+](=O)[O-])cc([N+](=O)[O-])c2)cc1	10%	0.2	-6.8	?	-0.5	6	6	45
CC(=O)c1cccc(NC(=O)c2ccc3c(c2)CCCC3)c1	.	-3.1	-4.7	3.0	3.5	5	-1	-10
O=C(OCc1c(Cl)cccc1Cl)c1ccncc1	17%	0.4	-3.0	2.3	-14	4	-4	-31
COc1ccc(Cl)cc1NC(=O)C1CCN(S(C)(=O)=O)CC1	?	0.2	-2.3	-1.5	-6.5	3	.	-13
